AID504770: growth inhibitors of E. coli YBA685 in a screen for V. cholerae RctB (chromosome II replication) inhibitors; E. coli YBA685 rctB-dependent plasmid, OD600 growth, 3 h; stronger effect = lower value; z-score (concentration not given with the values); 130,000 tested, 0.27% active;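 active = z-score under -2 on both plates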;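 also: wells of about 30 µL received 100 nL stock; score is relative to mean and SD of the test wells; the first replicate is given; strong numbers were not always called active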
CapD inh: CapD enzyme inhibition. purified CapD enzyme, fluorescence intensity read-out; stronger effect = lower value; some hits fall short of the stated cut. z-score (concentration not given with the values). 140,000 tested, 0.23% active. AID 492967;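 active = z-score under -4 in either of two replicates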;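 also: stock transfer was 100 nL into about 40 µL; score is relative to mean and spread of the plate; one replicate is shown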
Starred values were filed as active, the others as inactive; . = not tested or not shown.

SMILES | AID504770 | CapD inh
COc1cc(-c2nc(-c3ccsc3)c(-c3ccccc3)[nH]2)cc(OC)c1OC | 0.7 | 51
Fc1ccc(CO/N=C/c2c(-c3ccccc3)nc3ccc(Cl)cn23)cc1 | . | 1.6
CCOc1ccc(CCOC(=O)N2CCc3c([nH]c4ccccc34)C2)cc1 | . | -0.2
CC1CCC2(CC1)NC(=O)N(CN(C)Cc1cccs1)C2=O (centres undefined) | -0.65 | .
COCc1c(C(=O)NCc2cccs2)oc2ccccc12 | -1.9 | .
C=CCn1c(CCCNC(=O)c2cccs2)nc2ccccc21 | 1.1 | 0.15
CC(C)(C)C(=O)Nc1ccc(-c2csnn2)cc1 | 0.5 | -0.37
O=c1cc(O)c2sc3nc(-c4ccco4)cc(C(F)(F)F)c3c2[nH]1 | -0.1 | -6.2*
NS(=O)(=O)c1ccc(NC(=O)CN2C(=O)SC(=C3CCCCC3)C2=O)cc1 | 0.6 | .
CSC(=S)n1c(C)nc2ccccc21 | 0.2 | -0.93
Cc1ccccc1-c1nc(CN2CCC(C(=O)NC3CCCCC3)CC2)c(C)o1 | 0.5 | 0.05
COCCN(C1CCN(C(=O)c2ccccc2OC(C)=O)CC1)S(=O)(=O)c1ccc(Cl)cc1 | . | -0.58
Cc1ccc(C(C(=O)NC2CCCC2)N(C(=O)Cn2nnc3ccccc32)c2cnc3ccccc3c2)o1 (centres undefined) | 3.1 | .
COC(=O)c1nsc(Cl)c1Cl | -0.25 | 0.19
Cn1c(=NC(=O)CSc2nnc(-c3ccccc3)o2)sc2ccccc21 | -1.2 | .
Cc1nnc2c3cc(-c4ccccc4)sc3ncn12 | 1.2 | .
CN(C)c1ccc(/C=N/OC(=O)NC2CCCCC2)cc1 | 0.65 | 5.2
CC(C)c1nc2ccc(Cl)cc2c2c1C(=O)N(CCc1ccncc1)C2=O | . | -0.56
S=C1NCN(C2CC2)CN1 | . | -0.66
O=S(=O)(Cc1cc(-c2ccc(Cl)cc2)no1)c1cccc(Cl)c1 | . | -0.035
C/C(=C/C(=O)O)C(=O)Nc1nc(-c2cccs2)cs1 | 0.15 | .
CC1=NCCNC(C)=C1N1CCOCC1 | 0.05 | -2.1
CCOC(=O)c1cnn2c1[nH]c(=O)c1ccccc12 | 0.2 | 2.5
O=C(Oc1ccc2ccccc2c1)c1ccccc1 | 0.2 | -0.21
Nc1ccccc1OCCOc1ccccc1N | -0.25 | 0.11
Cc1nc(C(F)(F)F)ccc1-c1nnc(SCc2cc(F)cc(F)c2)o1 | 0.5 | -0.3
Cn1c(=O)c2ccccc2n2c(=S)sc(-c3ccccc3)c12 | 0.1 | 0.22
COc1ccc(Cn2c(=O)c3c(n4cnnc24)-c2ccccc2CC32CCCCC2)cc1 | . | -0.49
C/C(CC(C)C)=N\Nc1ccc(Cl)c(C(=O)O)c1 | -0.15 | .
CC(C)C(=O)NCc1ccc(Cl)cc1Cl | 1.1 | -0.36

Following part:
SMILES | AID504770 | CapD inh
CC(=O)N(CCN(C)C)c1nc2cc3c(cc2s1)OCO3 | -1.7 | -0.74
CCCCOc1ccc(CN(C)C)cc1CN(C)C | -0.25 | 0.41
O=C(CNc1cc(Cl)ccc1Cl)N1CCCC1 | -1.1 | -0.17
CCC(=O)N(CCC1(c2ccccc2)CCOC(C)(C)C1)Cc1ccccc1F (centres undefined) | 0 | 0.51
O=c1[nH]c2ccccc2nc1-c1c[nH]c2ccccc12 | 0.1 | 14
CC(=NC1CCCCC1)c1sc2ccccc2c1O | 0.55 | -0.75
COc1ccc2c(c1OC)C(=O)OC2 | . | 3.7
CC(CC(=O)OCc1ncc(-c2ccccc2)o1)c1ccccc1 (centres undefined) | 0.65 | .
CCOC(=O)C1=C(N)OC2=C(C(=O)CC(c3ccccc3)C2)C1c1cccc(OC)c1 (centres undefined) | . | 0.26
O=C(Oc1ccc(N2C(=O)C3C4C=CC(C4)C3C2=O)cc1)c1ccc([N+](=O)[O-])cc1 (centres undefined) | . | 0.23
NC(=S)N/N=C/c1cccc(C(F)(F)F)c1 | -0.5 | -1.5
CC(C)CNC(=O)C(=O)Nc1cccc(C(F)(F)F)c1 | . | -0.11
O=C(Nc1cccc(C(F)(F)F)c1)C1CCC(Cn2c(=O)[nH]c3ccsc3c2=O)CC1 (centres undefined) | 2.6 | -1.9
O=C(Nc1cccc(-c2nnco2)c1)c1cccs1 | -2 | -0.005
COC(=O)c1ccccc1NC(=O)Cc1c(C(=O)O)[nH]c2ccccc12 | 0.1 | 0.34
CCCC(=O)N1CCC2(CC1)OCCO2 | 1.4 | -0.46
O=C(O)C1CC(=O)N(Cc2ccc(Cl)cc2)C1 (centres undefined) | . | 0.74
COc1cccc(C(=O)Nc2cnn(CCCC(=O)O)c2)c1 | -0.65 | -0.03
Cn1ccnc1C(=O)c1cccnc1 | 1.2 | -1.4
COC(=O)c1sc(C(C)(C)C)cc1CS(=O)(=O)c1cc(C)c(Cl)cc1C | -1 | -0.48
CCOC(=O)c1c(Cl)c(C(C)(C)C)[nH]c(=O)c1C#N | . | -0.42
CC1(C(=O)Nc2ccc(NC(=O)C3(C)CCCC3)cc2)CCCC1 | 0.75 | 1.1
CN(Cc1ccc(-c2ccc(Br)cc2)o1)C(=O)c1cccs1 | -0.3 | .
CCSc1cccc2cccnc12 | 1.5 | 60
O=C(NCc1cccc(Cl)c1)c1ccc(CS(=O)Cc2ccc(Cl)cc2)o1 (centres undefined) | -1.3 | 0.72
CC(=O)N(CCc1ccccc1)CC1C(Oc2ccc(Cl)cc2)C(=O)N1c1ccccc1C (centres undefined) | 0.95 | -0.84
COc1ccc2c(c1)C(=O)N(c1ccc(C)cc1C)C(=O)/C2=C/N1CCOCC1 | -0.2 | .
CCN1CCN(C(=S)N[P+](c2ccccc2)(N(CC)CC)N(CC)CC)CC1 | 0.4 | .
COC(=O)C1=CN(Cc2ccc(Cl)cc2)C=C(C(=O)OC)C1c1cc(OC)c(O)c([N+](=O)[O-])c1 | . | -1.4
Cc1cc(C)c2c(C)c(C(=O)NN)sc2n1 | 0.8 | 4.8

Of the compounds above, 2 contain a nitro group on carbon.
SMILES | AID504770 | CapD inh
O=C(Oc1ccc(N2C(=O)C3C4C=CC(C4)C3C2=O)cc1)c1ccc([N+](=O)[O-])cc1 (centres undefined) | . | 0.23
COC(=O)C1=CN(Cc2ccc(Cl)cc2)C=C(C(=O)OC)C1c1cc(OC)c(O)c([N+](=O)[O-])c1 | . | -1.4

Following part:
SMILES | AID504770 | CapD inh
Cc1ccc(C(=O)N/C(=C\c2ccccc2)C(=O)NCc2ccco2)cc1 | . | -0.23
Cc1ccnc2nc(NC(=O)c3cccnc3)nn12 | 0.75 | -0.21
Cc1cc(-c2c(C)[nH]n(-c3ccccc3)c2=O)n(-c2ccc(Cl)cc2)n1 | . | 0.27
Cc1nn(CO)c(C)c1Sc1ccc(Cl)cc1 | -0.3 | -0.23
CCc1cc(-c2[nH]ncc2-c2cscn2)c(O)cc1O | -0.45 | -0.19
NNc1ncc(Cl)cc1Cl | 1.6 | 0.065
CC(C1CC1)N(CC(F)(F)F)C(=O)c1cnc2ccccc2n1 (centres undefined) | -0.55 | .
CCOC(=O)/C(C#N)=C\c1ccc(N(C)C)cc1 | -0.9 | .
Cc1cc(C)nc(NS(=O)(=O)c2ccc(NC(=O)c3cccc(Br)c3)cc2)n1 | . | 0.12
CCOC(=O)Nc1nc2c(ccc3ccccc32)s1 | 0.05 | .
CN(C)C(CN=C1NS(=O)(=O)c2ccccc21)c1ccccc1 (centres undefined) | -1 | .
CCc1nc(-n2nnc3cc(C)c(C)cc32)c2c3c(sc2n1)CCCC3 | -0.6 | -0.96
CCCN(CCC(=O)OC)C1CCN(Cc2c(OC)cccc2OC)CC1 | . | 0.075
COc1ccccc1C(C)NC(=O)c1cccc(OC(F)F)c1 (centres undefined) | -1 | .
Cc1cc(C)nc(N2CCN(c3ccccn3)CC2)n1 | 0.15 | 0.69
Cc1ccc(S(=O)(=O)N2CCN(Cc3cc(=O)n4ccccc4n3)CC2)c(C)c1 | 0.3 | .
CCOc1ccc(C(=O)Nc2cccc(-c3ccc(N4CCOCC4)nn3)c2)cc1OCC | 0.3 | .
CC(C(=O)NC(=O)NC1CCCCC1)N1CCN(S(=O)(=O)c2cc(Br)ccc2Br)CC1 (centres undefined) | -0.15 | .
CC(=O)Nc1cc2ccccc2cc1C(=O)O | -0.8 | .
O=C1CCCc2cc(S(=O)(=O)N3CCC(C(=O)N4CCOCC4)CC3)ccc2N1 | -0.15 | 0.56
O=C(O)CN1N=C(c2ccc(Cl)cc2)CCC1=O | -0.8 | -0.34
CCn1c(=O)cc(O)c2ccccc21 | -0.45 | 1.5
CC12C/C(=C\c3ccccc3)C(=O)C[C@]1(C)CCC1C2CCC2(C)C1CC[C@]2(C)O (some centres undefined) | . | -0.05
COc1ccc(C(=O)NCC(=O)N2CCc3ccccc3C2)cc1 | -0.3 | .
CCn1c(=O)n(CC)c2cc(S(=O)(=O)NC(C)C)ccc21 | -0.55 | .
COc1cccc2c1OC1(CCC(C)CC1)N1N=C(c3ccc(C)o3)CC21 (centres undefined) | . | -0.52
Cn1ncc(C(=O)O/N=C/c2ccc(Cl)cc2Cl)c1-n1cccc1 | . | -0.92
COc1cc(OC)nc(C(SCCNC(=O)c2c(F)cccc2F)c2ccccc2)n1 (centres undefined) | . | -0.59
O=C(OCc1csc(Nc2ccccc2)n1)c1cc(NS(=O)(=O)c2cccs2)ccc1O | 0.45 | .
C/C=C/CC(=O)Nc1nc(CC(=O)OCC)cs1 | -0.25 | -0.61

Remaining list, next part:
SMILES | AID504770 | CapD inh
Cc1c(C(=O)Nc2ccc(Cl)cc2)sc2ncnc(N3CCOCC3)c12 | . | 0.64
O=C(Cn1cnc2c(oc3ccccc32)c1=O)N1CCCSC1=Nc1ccccc1Cl | -0.05 | .
O=C(O)CCn1c(SCc2cccc3ccccc23)nc2ccccc21 | . | 0.15
Cc1cc2nc3[nH]c4ccccc4c3nc2cc1C | . | 1.7
c1ccc(CCN2CN=C(Nc3nc4ccccc4o3)NC2)cc1 | 0 | 0.12
CCCN(CCC)C(=O)Cn1c(=O)n(CCC(=O)NCc2ccco2)c(=O)c2sccc21 | 1.2 | -0.025
CC(C)(C)C(=O)NC(Cc1c[nH]c2ccccc12)C(=O)O (centres undefined) | -0.4 | .
CCOC(=O)CC1=C(C(=O)OCC)C(c2ccccc2F)C(C#N)=C(N)O1 (centres undefined) | . | 0.2
CC(C)(C)[Si](C)(C)OCC1OC(n2ccc(N)nc2=O)CC1O[Si](C)(C)C(C)(C)C (centres undefined) | . | 12
CCOC(=O)C1=C(c2ccccc2)OC(N)=C(C#N)C1c1ccc(F)cc1 (centres undefined) | -0.85 | 1.8
C=CCSc1nnc2c(n1)OC=Nc1ccccc1-2 | -0.6 | -1.1
O=C(CSc1nc2ccccc2[nH]1)C1CC1 | -1.2 | 0.4
Cc1ncc(CO)c2cc(-c3nnc(NCc4ccco4)s3)c(=O)oc12 | 0.8 | -0.44
CCc1ccc(NC(=O)c2ccc3c(=O)n4c(nc3c2)CCCCC4)cc1 | 0.65 | 21
CCOc1ccccc1OC(=O)NN | -0.7 | .
COc1cc(OC)c(NC(=O)CSc2nc3[nH]ncc3c(=O)n2-c2ccc(Cl)cc2Cl)cc1Cl | . | -0.31
CCOC(=O)CSc1nc2sc(C(=O)OCC)c(C)c2c(=O)n1Cc1ccccc1OC | . | -1.2
N#CC(C#N)=Cc1cc(-c2ccccc2)n(-c2ccc(Cl)cc2)c1-c1ccccc1 | . | 0.18
COc1cc(OC)cc(C(=O)Nn2c(-c3cc(OC)c(OC)c(OC)c3)nc3ccccc3c2=O)c1 | . | -0.14
CCn1c2ccccc2c2nc3ccccc3nc21 | 0.05 | -0.15
CCCC(=O)c1cc2ccccc2oc1=O | . | -0.43
COc1ccc(S(=O)(=O)Nc2ccc(S(=O)(=O)Nc3cc(C)on3)cc2)cc1 | . | -0.32
Cc1cn(CCC(=O)NCc2c(F)cccc2Cl)c2ccccc12 | -0.4 | -0.95
CN(C)S(=O)(=O)c1ccc(C(=O)Nc2nc3c(s2)CCCC3)cc1 | 1.4 | 0.08
O=C(Nc1cccn(Cc2c(Cl)cccc2Cl)c1=O)C(F)(F)F | . | 0.36
O=C1Nc2ccccc2OC1CC(=O)N1CCCC1 (centres undefined) | -0.85 | -0.83
CCc1ccc(NS(=O)(=O)c2ccc3c(c2)C(C)(C)C(=O)N3C)cc1 | 0.4 | -0.3
COc1ccccc1C(=O)N/C(N)=N/c1nc2ccccc2o1 | 0.25 | 0.1
CC(=O)N1CCc2cc(C(=O)CN3CCOCC3)ccc21 | -0.75 | -0.025
CCN(Cc1ccccc1)C(=O)CSc1ccccc1C(=O)O | 0.85 | 0.22

Going on with the list.
SMILES | AID504770 | CapD inh
COc1cc(NS(=O)(=O)c2cccc3nsnc23)c(C(=O)O)cc1OC | . | -2.4
COc1ccccc1NC(=O)c1cc2ccccc2oc1=Nc1ccccc1F | 0.2 | -0.71
O=C(O)CCN1C(=O)COc2ccc(Cl)cc21 | -0.35 | .
Cc1nnc(NC(=O)CSc2nnc(Cc3cccn3C)n2-c2ccc(F)cc2)s1 | 0.35 | 0.68
CCN(Cc1ccncc1)C(=O)NC(c1ccccc1)c1ccc(Cl)cc1 (centres undefined) | . | 0.7
CC1CCCCC1NC(=O)NC(=O)CSc1nc2c(cnn2-c2ccccc2)c(=O)[nH]1 (centres undefined) | -0.2 | .

Entries of single compounds, looked up by structure. Values in the order: AID504770	CapD inh
Cc1nnc(NC(=O)CSc2nnc(Cc3cccn3C)n2-c2ccc(F)cc2)s1 across the screens: 0.35	0.68
CCN(Cc1ccncc1)C(=O)NC(c1ccccc1)c1ccc(Cl)cc1 (centres undefined) across the screens: .	0.7
COc1cc(NS(=O)(=O)c2cccc3nsnc23)c(C(=O)O)cc1OC across the screens: .	-2.4
O=C(O)CCN1C(=O)COc2ccc(Cl)cc21 across the screens: -0.35	.
CC1CCCCC1NC(=O)NC(=O)CSc1nc2c(cnn2-c2ccccc2)c(=O)[nH]1 (centres undefined) across the screens: -0.2	.

Screening results: PubChem BioAssay, ICCB-Longwood Screening Facility, Harvard Medical School

A portion of the library; rates above refer to the full screens.
